NPYLR7 agonist = activates Aedes aegypti NPYLR7 receptor | actives 0.15% (n = 270,000) | AID 1259423 | activation, % at 10 µM | HEK293T NPYLR7/Galpha15, GCaMP6s calcium fluorescence; in the data active = activation above about 40%;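 also: 0% = vehicle and 100% = reference agonist at the receptor; some compounds past the cut are filed as inactive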
NPYLR7 agonist max-min = second read-out of NPYLR7 agonist, no call of its own (marks repeat the call); activation, %; measured here: Max-Min RFU normalised activation; some inactives read as strong as hits;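 span of the calcium signal over five minutes; 0% = vehicle and 100% = native peptide agonist; compound fluorescence can raise it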
Active calls of the source: *; & = joins results of further samples. Not all compounds are listed; rates above refer to the full screens.

SMILES	NPYLR7 agonist	NPYLR7 agonist max-min
C/C=C(\C)C(=O)O[C@H]1C[C@@]2(C)CCC(C(C)C)C2(O)CC[C@@]1(C)O (some centres undefined)	2	2
COc1ccc(NC(=O)c2c(NC(=O)CCC(=O)O)sc3c2CCC(C)C3)cc1 (centres undefined)	3	6
CC1C(=O)N(c2cccc(Br)c2)CCN1C(=O)CCc1ccccc1 (centres undefined)	-2	8
Cc1cc([N+](=O)[O-])nn1CC(=O)Nc1c(F)cc(F)cc1Br	-2	-5
CCOc1ccc(C(=O)N2CCN(c3ncccc3C)CC2)o1	3	1
O=C1CC(NS(=O)(=O)c2ccccc2)CN1CCc1ccccc1 (centres undefined)	13	6
CNC(=S)N1CCn2cccc2C1c1cc(OC)ccc1OC (centres undefined)	1	-1
COc1ccc(OC)c2sc(N(CCN3CCOCC3)C(=O)c3ccc(C#N)cc3)nc12	9	3
CCCCn1nnnc1NCc1ccc(C)s1	11	1
CCOC(=O)N1CCN(Cc2nc3c(c(=O)n(C)c(=O)n3C)n2CCc2ccccc2)CC1	5	1
S=c1[nH]nc(CSc2nc3ccccc3s2)n1-c1ccccc1	6	6
Cc1ccc2cc(CCNC(=O)c3cc4ccccc4o3)c(=O)[nH]c2c1C	0	0
Cc1ccc(-c2cc(C(=O)N(CCc3ccccc3)Cc3ccccc3)n(-c3ccc(Cl)cc3)n2)cc1C	-3	6
COc1cc2c(cc1OC)CN(S(=O)(=O)c1ccc(OC)c(N3CCN(C(=O)c4ccc(F)cc4C(F)(F)F)CC3)c1)CC2	20	9
CN(C)C(=O)CN1CCN(Cc2cccc(C(=O)Nc3cnn(C)c3)c2)CC1	6	5
O=C(CSc1nc2c(cnn2CCO)c(=O)[nH]1)NCc1ccccc1Cl	4	0
CCCOCC1CCN(c2nc(C)nc3sccc23)C1 (centres undefined)	0	3
[N-]=[N+]=NC1CC(CO)OC1n1ccc(=O)[nH]c1=O (centres undefined)	-4	-7
CC1(C)CN(C(=O)c2cccs2)C2(S1)C(=O)N(Cc1ccccc1Cl)c1ccccc12 (centres undefined)	-3	3
CCOC(=O)CSc1nnc(CNc2ccc(F)cc2)n1CC1CCCO1 (centres undefined)	2	1
CC1CCN(Cc2nnnn2CCCC(=O)N(C)C(C)c2ccncn2)CC1 (centres undefined)	-2	-5
CN(C)CCn1c2c(c(SCC(=O)Nc3ccc([N+](=O)[O-])cc3)nc1=O)CCC2	-2	-6
COc1cccc(C(=O)Nc2ccc(-c3nc4cc(C)ccc4o3)c(O)c2)c1	-4	-7
Cc1ccc(-n2nnnc2SC(C)C(=O)NCc2cccs2)c(C)c1 (centres undefined)	-7	-8
CCOC(=O)C1CCCN(CC(=O)N2N=C(c3ccccc3Cl)CC2c2cccn2C)C1 (centres undefined)	11	23
O=C(CC(=O)N(Cc1cccnc1)C[C@@H]1CCC(=O)N1)Nc1ccc(F)c(Cl)c1	7	-4
O=C(O)c1cc(=O)n(CN2CCOCC2)c(=O)[nH]1	-3	1
CC(=O)NCc1ccc(C(=O)OCC2CCN(c3ccccc3)C2)o1 (centres undefined)	2	2
C=CCn1c(=O)c2ccccc2n(CC(=O)NC2CC2)c1=O	-8	-4
O=C1CN(C(=O)c2cc(C3CC3)nc3ccccc23)CCN1	1	0
C=CCn1c(=O)c2c(nc3n(CCCN4CCOCC4)c(C)cn23)n(C)c1=O	-7	-10
CCCNc1ncc(CN2CCN(C)C(C(=O)O)C2)cn1 (centres undefined)	-2	-4
O=C1NC2(CCN(C(=O)c3ccc(F)cc3)CC2)Nc2cccc(Cl)c21	1	13
Cc1cnc(C(=O)N2Cc3cnn(Cc4ccc(F)cc4)c3C2)cn1	4	2
C=C(C)COc1ccccc1C(=O)NCc1ccnn1C	1	12
CCc1nc2c(OCc3ccc(F)c(F)c3)cccn2c1N(C)C(=O)c1ccco1	6	-6
CC(C)(O)C#Cc1ccc(CN2CCn3cncc3C2)s1	1	-1
COc1ccc(NC(=O)c2cc(Br)c[nH]2)c(OC)c1	11	11
COCc1cc(N2CCN(c3ccccc3F)CC2)nc(SCc2cccc(C(=O)NCc3ccco3)c2)n1	5	20
CCc1ccc(C2CC(=O)Nc3cc(O)c(C)cc32)o1 (centres undefined)	14	14
Nc1cc(S(N)(=O)=O)ccc1Cl	8	5
O=C(Nc1ccc(-c2ccnc(Nc3ccc(N4CCOCC4)cc3)n2)cc1)[C@@H]1CCCN1	6	-1
COC(=O)C(NC(=O)C(C)(C)C)=C(Cl)Cl	1	6
CCc1nnc(CN2CCc3onc(C(c4ccccc4)c4ccccc4)c3C2)o1	1	-2
Cc1nc2sccn2c(=O)c1NC(=O)C1CC1	11	3
CCCCN(Cc1ccc(OS(C)(=O)=O)cc1)S(=O)(=O)c1ccc(C(C)(C)C)cc1	24	23
CCOC(=O)C1(Cc2ccc(OC)cc2)CCN(C(=O)CN2C(=O)CSC2=O)CC1	11	14
COc1ccc(C(C)C)cc1CN1CCN(C(=O)C2CCN(C(=O)OC(C)(C)C)CC2)CC1	-8	-13
COCc1ccccc1NC(=O)N1CCCCCC1	0	0
O=C1c2cccc3cccc(c23)C(=O)N1CCCN(C(=O)c1ccc(Br)cc1)c1cccc2ccccc12	8	0
CCOC(=O)CNC(=O)N(CCOC)CC(=O)N(CCc1c[nH]c2ccccc12)Cc1ccccc1OC	1	15
CC(=O)c1ccc(S(=O)(=O)N2CCCC(C(=O)c3cccc(OC(C)C)c3)C2)cc1 (centres undefined)	-2	-5
Cc1cccc(Oc2cnn(-c3cccc(Cl)c3)c(=O)c2Nc2cccc(C(=O)NCC3CCCO3)c2)c1 (centres undefined)	0	6
Cc1nn(C(C)C)c(C)c1NS(=O)(=O)Cc1cccc(F)c1	7	7
Cn1ncc2c(=O)n(CC(=O)NCC(c3ccccc3)c3ccccc3)cnc21	1	-3
Cc1ccc(C)c(C(=O)N2CCCC(C(=O)N3CCN(C)CC3)C2)c1 (centres undefined)	2	2
C[C@@H]1OC(O[C@H]2[C@H](OC(=O)[C@]34CCC(C)(C)CC3C3=CCC5[C@@]6(C)CC[C@H](OC7O[C@@H](C)[C@H](O[C@@H]8OC[C@@H](O)[C@H](O)[C@H]8O)[C@@H](O)[C@H]7O)C(C)(C)C6CC[C@@]5(C)[C@]3(C)CC4O)OC[C@H](O)[C@H]2O)[C@H](O)[C@H](O)[C@H]1O[C@@H]1O[C@H](CO)[C@@H](O)[C@H](O)[C@H]1O (some centres undefined)	54*	49*
COc1cccc2c1C(=O)c1c(O)c3c(c(O)c1C2=O)C[C@@](O)(C(C)=O)C[C@@H]3OC1CC(N)C(O)C(C)O1 (some centres undefined)	-3	-8
Cc1nc2ncnn2c(C)c1CCC(=O)Nc1nc(-c2ccccc2Cl)cs1	-1	42
COc1ccc(N=Cc2c(Nc3ccc(Cl)cc3)nc3c(C)cccn3c2=O)cc1	-5	-7

Later entries
SMILES	NPYLR7 agonist	NPYLR7 agonist max-min
C=CCNS(=O)(=O)c1ccccc1F	3	5
COCCCNC(=O)C(C1CCCC1)N1CCN(C(=O)c2ccc(Cl)cc2)CC1 (centres undefined)	-9	-9
Cc1ccc(Cc2nsc(N3CCCN(C(=O)Nc4ccc(Cl)cc4Cl)CC3)n2)cc1	9	13
CCc1n[nH]c2c1CN(C(=O)c1cc(=O)n(C)c(=O)n1C)CC2	3	-2
COc1ccc(-c2cc(C3CC3)nc3sc4c(N)ncnc4c23)cc1	-1	-3
Cn1c(=O)n(CC=Cc2ccccc2)c(=O)c2c1nc1n2CCCN1c1ccccc1	7	5
CN(Cc1ccccc1)C(=O)C1(C)CCN1C(=O)c1ccccc1 (centres undefined)	15	12
Cn1cc(CN2CCCC2c2nccs2)c(-c2ccc3c(c2)OCCO3)n1 (centres undefined)	2	-2
Cc1nc2ccccc2nc1CN1CCOc2ccc(C(O)Cc3ccccc3)cc2C1 (centres undefined)	17	11
O=C(Nc1cccc(Cc2ccccc2)c1)Nc1cccc2[nH]c([C@@H]3O[C@H](CO)[C@@H](O)[C@H](O)[C@H]3O)nc12	21	24
COc1cccc(C(=O)N2C(C(=O)NC3CC3)COC23CCN(C(=O)CC(C)(C)C)CC3)c1 (centres undefined)	5	9
O=C(O)c1cc(S(=O)(=O)NCc2ccncc2)c(Cl)cc1Cl	-2	-5
Cn1cc(CNC(=O)c2ccc(OC3CCN(S(C)(=O)=O)CC3)c(Cl)c2)cn1	6	2
COc1ccc(CNC(=O)c2ccc(-c3cnn(C)c3)c3ccoc23)cc1OC	3	-2
O=C1CCN(CC(O)CC(F)(F)F)c2ccsc2CN1Cc1ccccc1 (centres undefined)	-1	8

Grouped by structure, the entries above containing a CF3 group.
SMILES	NPYLR7 agonist	NPYLR7 agonist max-min
COc1cc2c(cc1OC)CN(S(=O)(=O)c1ccc(OC)c(N3CCN(C(=O)c4ccc(F)cc4C(F)(F)F)CC3)c1)CC2	20	9
O=C1CCN(CC(O)CC(F)(F)F)c2ccsc2CN1Cc1ccccc1 (centres undefined)	-1	8

Further entries.
SMILES	NPYLR7 agonist	NPYLR7 agonist max-min
CCOC(=O)N1CCN(CC(=O)N2N=C(c3ccccc3Cl)CC2c2cccn2C)CC1 (centres undefined)	14	23
Cc1cc(NC(=O)C(C)Oc2cccc3cccnc23)no1 (centres undefined)	4	1
COCCCN(CC(=O)Nc1cc(C(C)(C)C)nn1-c1cccc(C)c1)C(=O)Nc1ccccc1Br	-2	11
O=C(CCN1C(=O)NC2(CCCCC2)C1=O)Nc1nc(-c2cccs2)cs1	11	15
Cc1cccc(C(=O)N2CCCC(C(=O)c3ccc(-c4ccccc4)cc3)C2)n1 (centres undefined)	-2	-3
CCc1nc2n(n1)C(=O)C(C(c1ccc(F)cc1)N1CCC(C(N)=O)CC1)S2 (centres undefined)	0	23
C=C(Br)CN1CCC(CCN(C)C)CC1	1	-1
C=CCN(CC(=O)N1CCc2sccc2C1c1ccc(Cl)cc1Cl)C(=O)CCl (centres undefined)	-7	0
Cc1nc(N2CCN(CCO)CC2)nc2c1C(=O)CC(/C=C/c1ccccc1)C2 (centres undefined)	-15	-18
O=C(Nc1nncs1)NC1CCN(Cc2ccccc2)CC1	4	0
O=Cc1cc(Br)c(Sc2ncccn2)o1	0	1
CCc1nc2c(OCC(=O)c3ccc(Cl)cc3Cl)cccn2c1N(C)C(C)=O	16	1
CCOCCCN(CC(=O)N(Cc1ccccc1)Cc1ccc(C)s1)C(=O)Nc1ccc(C#N)cc1	26	26
COc1ccccc1N1CCN(c2ccc(NC(=O)c3ccc(Br)cc3)cc2C(=O)NC(C)c2ccccc2)CC1 (centres undefined)	-2	5
CCN1CCN(c2nc3c(c(=O)[nH]c(=O)n3C)n2CCSc2nc3ccccc3s2)CC1	11	7

Part of the list above in order of SMILES length, ascending.
SMILES	NPYLR7 agonist	NPYLR7 agonist max-min
C=C(Br)CN1CCC(CCN(C)C)CC1	1	-1
O=C(Nc1nncs1)NC1CCN(Cc2ccccc2)CC1	4	0
Cc1cc(NC(=O)C(C)Oc2cccc3cccnc23)no1 (centres undefined)	4	1
O=C1CCN(CC(O)CC(F)(F)F)c2ccsc2CN1Cc1ccccc1 (centres undefined)	-1	8
O=C(CCN1C(=O)NC2(CCCCC2)C1=O)Nc1nc(-c2cccs2)cs1	11	15
C=CCN(CC(=O)N1CCc2sccc2C1c1ccc(Cl)cc1Cl)C(=O)CCl (centres undefined)	-7	0
Cc1nc(N2CCN(CCO)CC2)nc2c1C(=O)CC(/C=C/c1ccccc1)C2 (centres undefined)	-15	-18
Cc1cccc(C(=O)N2CCCC(C(=O)c3ccc(-c4ccccc4)cc3)C2)n1 (centres undefined)	-2	-3
Cn1cc(CNC(=O)c2ccc(OC3CCN(S(C)(=O)=O)CC3)c(Cl)c2)cn1	6	2
CCN1CCN(c2nc3c(c(=O)[nH]c(=O)n3C)n2CCSc2nc3ccccc3s2)CC1	11	7
CCOCCCN(CC(=O)N(Cc1ccccc1)Cc1ccc(C)s1)C(=O)Nc1ccc(C#N)cc1	26	26
COCCCN(CC(=O)Nc1cc(C(C)(C)C)nn1-c1cccc(C)c1)C(=O)Nc1ccccc1Br	-2	11
COc1ccccc1N1CCN(c2ccc(NC(=O)c3ccc(Br)cc3)cc2C(=O)NC(C)c2ccccc2)CC1 (centres undefined)	-2	5

The list continues:
SMILES	NPYLR7 agonist	NPYLR7 agonist max-min
O=S(=O)(C1=C(O)c2ccccc2CC1)c1ccccc1	-1	6
Cc1ccc(-n2c(C)cn3c4c(=O)n(CC(C)C)c(=O)n(C)c4nc23)c(C)c1	3	4
COc1ccc(S(=O)(=O)NCC2CCCO2)cc1N1CCN(S(=O)(=O)c2ccc(Cl)cc2)CC1 (centres undefined)	4	-1
CC(C)[C@@H]1C[C@@H]2C[C@H](N(CC(=O)O)C(=O)C3CCC3)C[C@@H]2CO1	17	14
CC1CCC2(CC1)OCC(C(=O)NCC1CCCO1)N2C(=O)c1ccccc1Cl (centres undefined)	-1	10
CCOC(=O)C1(Cc2ccccc2C)CCCN(C(=O)CSC)C1 (centres undefined)	-5&-11	-10&-15
Cc1ncc2c(c1-c1nnn(C[C@]3(O)CCCN4CCCC[C@@H]43)n1)CCC2	3	1
CN(C)C(CN1C(=O)c2cc(Br)ccc2S1(=O)=O)c1cccc(F)c1 (centres undefined)	2	1
Nc1nc(Cl)cc(NCC(O)c2cccc(Cl)c2)n1 (centres undefined)	4	2
Cc1ccccc1-c1nc(CN(C)C2CCOC2)c(C)o1 (centres undefined)	4	10
COc1cc(C2Nc3ccccc3-c3nc4ccccc4n32)ccc1O (centres undefined)	-6	-9
NS(=O)(=O)c1ccc(N=C2NC(=O)C(CC(=O)O)S2)cc1 (centres undefined)	3	0
Cc1ccc(S(=O)(=O)N2CCN(c3nc(C)nc4sc5c(c34)CCCC5)CC2)cc1	-5	-9
c1ccc(C2CCCCN2Cc2ccc(-c3cccnc3)cc2)nc1 (centres undefined)	2	1
Cc1ccc(S(=O)(=O)Nc2ccc3oc4c(c3c2)C(=O)CCC4)cc1[N+](=O)[O-]	-7	-11
CC(C#N)c1cccc(C(=O)N2CCN(Cc3cccc(-c4noc(-c5cccc(Cl)c5)n4)c3)CC2)c1 (centres undefined)	5	4
